High-throughput results: PubChem, several laboratories
eIF4H inh = human eIF4H binding inhibitors, primary screen, translation initiation inhibitor project, biochemical, uHTS, fluorescence polarization | AID 2012, 2009 | eIF4H fluorescence polarization binding assay | inhibition, % at 35 µM | 290,000 tested, 0.94% active;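 active means 50% or more with normal probe brightness, or confirmed in later tests; about a fifth of its hits are not listed in these tables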;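 further: calls also rest on retests at 20 µM and on dose response follow-up; 0% = protein and probe with vehicle and 100% = probe without protein; strong numbers were not always called active; many hits fall short of the cut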
MT1-MMP act inh = blockers of MT1-MMP proenzyme processing, primary screen, HT1080 RFP-PRO-GFP cells, GFP/RFP fluorescence. Matrix metalloproteinase-14 (Homo sapiens), P50281. GFP/RFP ratio fluorescence, overnight; percent of plate control window, DMSO zero. GFP/RFP ratio change, % at 20 µM. 360,000 tested, 0.061% active. AID 651647, 2012;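 active means GFP/RFP ratio change of at least 30% with cell ATP level not reduced by more than half and red fluorescence within 50% of control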; further: strong numbers were not always called active
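Assay system: HT1080 RFP-PRO-GFP cells. Benchmarks: DMSO vehicle wells and RFP-L50D-GFP reporter cell wells. Times: overnight cell settling, then overnight compound exposure, 37 °C, 5% CO2. Compound: 20 µM single dose, 1% DMSO. Read-out basis: GFP/RFP fluorescence ratio.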
UUG fidelity = modulators of yeast start codon fidelity, primary screen, whole organism, S. cerevisiae, single point, plate reader; 350,000 tested, 0.13% active; activity score, % at 18.7 µM; AID 602363, 2012; S. cerevisiae UUG-firefly luciferase reporter, luminescence/redox ratio;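 active means replicate mean at a twofold rise or more, about +100% in these data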;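 further: firefly luciferase made from a UUG start codon reports start codon fidelity; reporter light over untreated wells divided by growth signal over untreated wells; some hits fall short of that in this replicate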
PABP polyA inh = PABP poly(A) RNA binding inhibitors, primary screen, biochemical, fluorescence polarization, uHTS | Polyadenylate-binding protein 1 (Homo sapiens), P11940 | inhibition, % at 35 µM | 290,000 tested, 1% active | AID 2014, 2009;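 active means 50% or more with normal probe brightness, or confirmed in later tests; about a fifth of its hits are not listed in these tables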;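 further: calls also rest on retests at 20 µM and on dose response follow-up; controls were probe without protein and protein plus probe with vehicle; some compounds called inactive have numbers as strong as hits; many hits fall short of the cut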
CSC inhib = cancer stem cell viability inhibitors, primary screen, luminescence; cancer stem cell-like cells viability; inhibition, % at 7.5 µM; 300,000 tested, 1.1% active; AID 2717, 2010;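 active means mean at 75% or more and at least half the replicates too; tested in HMLE shEcad cells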;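 further: 0% = median of negative and 100% = median of positive control wells; the first replicate is given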
Rce1 inh = yeast Rce1p protease inhibitors, primary screen, biochemical, fluorescence, cell-free homogeneous | CAAX prenyl protease 2 (Saccharomyces cerevisiae (strain ATCC 204508 / S288c)), Q03530 | yeast membranes, quenched prenylated peptide cleavage fluorescence | calls only | 290,000 tested, 0.27% active | AID 2563, 2010;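 active means fall in fluorescence gain of 50% or more versus controls, with final raw signal at or below 3038400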;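 further: plate controls were neutral control wells for no effect and wells lacking membranes for full effect; tested at 10 µM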
Target sequence (Q03530 whole entry, looked up): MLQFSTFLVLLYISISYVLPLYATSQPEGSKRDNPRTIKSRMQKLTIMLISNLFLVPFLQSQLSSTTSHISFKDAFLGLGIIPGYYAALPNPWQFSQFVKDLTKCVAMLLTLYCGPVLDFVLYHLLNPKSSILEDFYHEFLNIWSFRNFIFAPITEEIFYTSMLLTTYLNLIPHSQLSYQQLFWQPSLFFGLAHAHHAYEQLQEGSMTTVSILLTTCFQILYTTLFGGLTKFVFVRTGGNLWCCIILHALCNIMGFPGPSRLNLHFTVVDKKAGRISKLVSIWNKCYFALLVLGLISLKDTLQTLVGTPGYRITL
HIV Env fusion = inhibitors of HIV-1 Env-driven cell-cell fusion, primary screen, HeLa-JRFL effector, CEM21 target cells, luciferase; 360,000 tested, 1.1% active; inhibition, % at 12.3 µM;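 active means mean replicate inhibition score of at least 50 and every replicate individually at or above 50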;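 further: 0% = plate neutral controls and 100% = maraviroc near 300 nM; one replicate is shown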
eIF4H inh retest = also measured in eIF4H inh; calls as there; inhibition, %; compound at 20 µM; confirmation average;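 mean of two retest wells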
PABP polyA inh retest = second read-out of PABP polyA inh, no call of its own (marks repeat the call); inhibition, %; compound at 20 µM; confirmation repeats;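 mean of two retest wells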
MT1-MMP act inh RFP = recorded beside MT1-MMP act inh, whose call it bears; RFP signal change, %; measured here: RFP expression control read;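 0 = vehicle wells; hits needed this value within 50% of zero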
* = called active by the depositor; i = inactive; / = not tested or not shown. The list is partial, so the mix of outcomes need not match the whole.

SMILES	eIF4H inh	MT1-MMP act inh	MT1-MMP act inh RFP	UUG fidelity	PABP polyA inh	CSC inhib	Rce1 inh	HIV Env fusion	others
O=C(NCc1ccc2c(c1)OCO2)c1cccc(Cl)c1	-3	-1	-3	1	-1	7	i	/
CCCn1c(=O)c2ccccc2n2c(SCCOc3ccccc3)nnc12	-4	2	-3	-7	-9	3	i	/
O=C(CN1CCCCCC1)Nc1cccc([N+](=O)[O-])c1	3	3	3	-5	-17	2	i	2
Cn1c(=O)c2ncn(CC(=O)N/N=C/c3ccco3)c2n(C)c1=O	1	3	6	/	-4	-14	i	-30
Cc1cc(NCc2ccc(F)cc2Cl)n2nnnc2n1	-4	1	1	-10	-11	5	i	/
Cc1cccc2cc3c(nc12)SC(=NCC1CCCO1)N(Cc1ccco1)C3 (stereo not drawn)	-2	-3	-5	-24	6	-3	i	/
COc1ccc(NC(=O)c2cccc(F)c2)cc1Cl	-1	2	4	-11	-5	15	i	/
O=C(NCc1ccco1)Nc1ccc(Br)cc1	-3	-2	3	-3	5	6	i	/
Oc1ccccc1N=Cc1c(O)ccc2ccccc12	86	2	6	-11	118*	/	i	21	eIF4H inh retest=29;PABP polyA inh retest=126*
O=C(O)C1CCCCC1C(=O)NC(c1ccccc1)c1ccccc1 (stereo not drawn)	-2	-3	1	/	-2	-15	i	-24
Cc1ccc(Cl)cc1NC(C#N)c1ccccc1 (stereo not drawn)	19	0	-1	/	6	-1	i	-12
COc1cc(Cl)c(C)cc1NC(=O)COC(=O)C1=COCCO1	/	2	0	-3	/	1	i	9
COc1cccc(C(=S)N2CCCC2)c1OC	4	-3	-1	-5	4	-9	i	-6
Cc1ccc(C)c(-n2nnnc2SCC(=O)Nc2cccc(-c3nnc4n3CCCCC4)c2)c1	-8	5	-1	18	0	3	i	-8
CCOc1ccc(S(=O)(=O)N2CCN(CC(O)COc3cccc([N+](=O)[O-])c3)CC2)cc1 (stereo not drawn)	7	5	-5	-13	10	/	i	13
O=C(NC1CCS(=O)(=O)C1)c1cccc(S(=O)(=O)N2CCCCC2)c1 (stereo not drawn)	7	-3	-1	-4	0	-12	i	-69
CC(C)CCNC(=O)NC(=O)COC(=O)C1=COCCO1	-5	1	-1	46	4	22	i	-19
O=C(NC(=S)Nc1ccc2c(c1)OCCO2)c1cccc2ccccc12	-6	-1	-2	/	2	35	i	-31
CC(C)Sc1n[nH]c(=O)n1-c1ccccc1	2	1	3	-25	5	-2	i	19
COc1ccc(NC(C)c2ccccc2)cc1 (stereo not drawn)	0	4	2	/	-4	/	i	-7
COc1ccc(NC(=O)N(CCc2ccccc2)Cc2cc3c(C)cc(C)cc3[nH]c2=O)cc1	-2	-12	-14	-14	6	19	i	-131
Cc1ccc2[nH]c(=O)c(CN(CCCN3CCOCC3)C(=O)NC3CCCCC3)cc2c1	8	-2	3	-14	-13	1	i	-84
CCOc1ccc(S(=O)(=O)Nc2nccs2)cc1	12	2	6	7	7	-6	i	/
O=S1(=O)CCN(CCCc2ccccc2)CC1	/	-6	1	-5	/	/	/	1
CCCc1c(C)c2cc(C)ccc2[nH]c1=O	-4	7	2	/	-1	-7	i	/
Cc1ccc(NC(=O)C(=O)NCC2OCCc3ccccc32)cc1 (stereo not drawn)	-2	-2	-2	-7	3	-3	i	-13
COC(=O)C(CC(C)C)N1CCC(=O)c2ccccc2S1(=O)=O (stereo not drawn)	1	-1	2	-1	0	1	i	45
CCc1cc(-c2cnnn2Cc2ccccc2)ccc1-c1cn(CC(C)C)nn1	/	1	-14	-11	/	/	/	0
Cc1ccc(NCc2cccc(B(O)O)c2)cc1	/	10	3	8	/	/	/	25
CCc1ccc2[nH]c(=O)c(CN(CCCN3CCOCC3)C(=O)Nc3ccc(Cl)cc3)cc2c1	-9	-9	-7	/	-2	-1	i	/
Nc1c(C(=O)Nc2ccc(F)cc2)sc(=S)n1-c1ccccc1F	3	1	0	-8	-7	0	i	-10
COc1ccc(/C=N/NC(=O)c2ccncc2)cc1COc1ccc(NC(C)=O)cc1	2	/	/	/	-18	1	i	-268
CCc1noc(C)c1C(=O)N(CC)c1nc2c(C)cccc2s1	/	0	-3	-6	/	2	i	13
Cc1cccc(CS(=O)(=O)Cc2ccc(C(=O)NCc3cccnc3)o2)c1	6	0	0	-15	6	1	i	/
Cc1ccc(-c2cc(C(=O)NCc3ccc4c(c3)OCO4)[nH]n2)c(O)c1C	-10	6	5	-10	-21	16	i	-206
